High-throughput results as filed in PubChem BioAssay.
KSHV LANA nucl – inhibitors of KSHV LANA-nucleosome binding, primary screen, biochemical, fluorescence polarization, FITC-LANA1-23, chicken nucleosomes; FITC-LANA1-23 / chicken nucleosome fluorescence polarization; hits give low values; z-score (no concentration beside the values); actives 0.3% (n = 51,000); AID 720717, 2013;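 active means both repeat wells score below -2 in polarization z-score versus plate sample wells, excluding overly bright wells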;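 further: 100 nL library stock added to about 30 µL; numbers are from one replicate; some results filed as inactive read as strong as hits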
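Test system: purified chicken nucleosomes with FITC-labelled LANA N-terminal peptide (1-23); Input: 240 nM purified chicken nucleosomes (480 nM peptide binding sites), final; Medium: TEN-BT buffer, pH 7.5; Timing: 10–45 min, room temperature; Technique: fluorescence polarization, 480 nm excitation, 535 nm parallel and perpendicular emission; Replication: duplicates.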
Ab BasE inh – BasE siderophore enzyme inhibitors, primary screen, biochemical, Acinetobacter baumannii ATCC 17978, fluorescence polarization; purified BasE, fluorescence polarization binding displacement; inhibition, % (test concentration not listed); actives 0.1% (n = 84,000);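 active means both replicates above 25% with normal brightness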;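 further: 0% = negative plate control signal and 100% = positive plate control signal; stock transfer was 100 nL into about 30 µL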
Active calls of the source: *; . = no result given; & = joins results of further samples. Only part of the results is shown, so the mix of outcomes need not match the whole.

Structure,KSHV LANA nucl,Ab BasE inh
S=C(Nc1cccnc1)N1CCCCC1,0.56,0.5
Cn1nc(N2CCN(S(=O)(=O)c3ccccc3)CC2)c(=O)n(C)c1=O,.,-1.2
O=C(NC(=S)N1CCCC(C(F)(F)F)C1)c1ccc(F)cc1 (stereo not given),0.56,-0.4
N/N=C/c1ccc(S(=O)(=O)c2ccc(Cl)cc2)cc1,.,2.2
O=C(COc1coc(CN2CCN(Cc3ccccc3)CC2)cc1=O)N1CCCCC1,0.14,-0.1
CCCNC(=O)Cn1c(=O)n(C)c2ccccc21,.,1.0
CNC(=O)/C=C/c1ccc(S(=O)(=O)N2CCOCC2)cc1,.,2.3
O=C(OCCn1ncc2ccccc2c1=O)c1ccc2c(c1)CCO2,.,3.9
Cc1cc(N2CCOCC2)cc(C)[n+]1[O-],0.46,2.8
CCOC(=O)c1cnn2c(NC(=O)c3c(Br)cnn3C)c(C#N)nnc12,-0.38,3.3
COC(=O)c1c2c(n3ccc(C)cc13)C(=O)c1ccccc1C2=O,.,-2.9
N#C/C(C(N)=O)=C1\Oc2c(cc(O)cc2-c2ccccc2)S1,.,2.6
CCCCn1c2c(c(=O)n(C)c1=O)C(c1ccc(OC)cc1)N1CCCCCC1=N2 (stereo not given),.,0.9
CSC1=NC(=O)/C(=C\c2cccc3ccccc23)S1,0.53,.
O=C(Nc1cc(-c2ccc(Cl)cc2)nn1-c1ccc(F)cc1)C1CCC1,.,1.7

Later entries:
Structure,KSHV LANA nucl,Ab BasE inh
CC(C)(C)C(=O)CN1C(=O)c2ccccc2C1=O,.,-0.4
NC(=O)C1CCN(C(=O)CSc2nccc(-c3ccccc3)n2)CC1,-0.36,-0.6
CC(=C(CCOP(=O)(O)O)SC(=O)c1ccccc1)N(C=O)Cc1cnc(C)nc1N,1.2,-0.1
O=C(NCC(O)CO)c1c(I)c(C(=O)NCC(O)CO)c(I)c(N(CCO)C(=O)CO)c1I (stereo not given),-0.14,-0.5
c1ccc(Oc2ccc(NC3=NCCC3)cc2)cc1,-1.3,0.3
CCOC(=O)c1cccc(C(=O)Nc2nc3ccc(OC)cc3s2)n1,.,1.8
O=S1(=O)c2cccc3cccc(c23)N1Cc1ccccc1F,-1.1,0.8
O=C(CCCSc1nc(-c2ccco2)cc(C(F)(F)F)n1)NC1CCCCC1,0.093,-2.4
CCCn1c(CCC(=O)Nc2ccccc2C)nc2cc(S(=O)(=O)N3CCOCC3)ccc21,.,2.5
O=C1/C(=C/c2ccccc2)CCCc2ccccc21,.,-1.6
O=C(O)C1CC2C=CC1C21CC1 (stereo not given),0.45,-0.5
COc1ccc(CNc2nc3nc(C)c(Cl)c(C)n3n2)cc1OC,-0.84,0.4
O=C(COC(=O)c1ccc2c(c1)OCCO2)Nc1cccc(Cl)c1,.,1.7
CC(C)(C)c1nn2cnnc2n(NC(=O)Nc2cccc(Cl)c2)c1=O,.,-2.1
CCOc1ccc(-n2c(N)c3c(N)nc(N(CC)CC)c(C#N)c3c(C#N)c2=S)cc1,.,2.0

Continued.
Structure,KSHV LANA nucl,Ab BasE inh
CN1CCC(N(C)S(=O)(=O)c2ccc(N)cc2)CC1,.,1.6
CNC(=O)CO/N=C/c1ccc(N(C)C)cc1,.,-1.7
Cn1c2ccccc2c2nnc(N3CCN(Cc4ccccc4)CC3)nc21,0.027,-0.1
Cc1ccc(Sc2ncccc2C(=O)N2CCCCC2C(N)=O)cc1 (stereo not given),.,-1.0
Cc1ccc(C(=O)N2CCSC2=S)cc1,-0.73,1.6
CCOc1ccc2nc(SCC(=O)N3CCCC3=O)sc2c1,.,-0.5
O=C(Cn1cc(C(=O)C2CC2)c2ccccc21)NC1CC1,-0.8,-0.4
COC(=O)Nc1sc(C)cc1C(=O)OC,0.24,1.9
O=C(O)CC12OC3C4C5CC(C6C5C3C61)C42 (stereo not given),0.6,-1.6
CCc1cc2cc(C(=O)Nc3ccccc3)sc2s1,1.2,-0.5
Cn1c(-c2ccccc2)c(C(=O)COC(=O)c2ccc(Br)o2)c2ccccc21,.,-2.1
CCOCC(O)CSc1ccccc1 (stereo not given),1.5,0.7
COc1cccc(NC(C)C(=O)N2CC(C)OC(C)C2)c1 (stereo not given),.,2.8
O=C(CN1CCc2ccccc2C1)N(C1CCCCC1)C1CCS(=O)(=O)C1 (stereo not given),.,-1.1
Nc1nccnc1C(=O)OCC(=O)c1csc(N2CCCCC2)n1,.,0.4

(next part)
Structure,KSHV LANA nucl,Ab BasE inh
O=S(=O)(c1cccc(F)c1)N1CCN(CC(O)COC(c2ccccc2)c2ccccc2)CC1 (stereo not given),.,1.8
CC(C)C(=O)Nc1ccc(CN2CCCCC2)cc1,1.8,-4.2
CC(=O)Oc1cc(OC(C)=O)c2c3c(c(=O)oc2c1)CCCC3,0.042,1.5
c1ccc2c(c1)CN1CCCC1=N2,-0.62,0.9
Nc1ccn([C@@H]2O[C@H](CO)[C@@H](O)C2O)c(=O)n1 (stereo not given in full),1.3&0.17,.
C=CCN1C(=O)Cc2c1nc(N)c1c(N)nc(N3CCN(C(=O)c4ccco4)CC3)c(C#N)c21,.,0.2
CC(C(=O)NC1CCCC1)N(c1ccc(F)cc1)S(C)(=O)=O (stereo not given),0.79,-0.9
CN(C)N1C(=O)c2cccc3c(Br)ccc(c23)C1=O,-0.36,3.3
CCCn1c(SCC(=O)N2CCCc3ccccc32)nnc1C(C)C,-2.6,1.6
CCCCN1C(=O)/C(=C/N(C(C)=O)c2ccccc2)SC1=S,.,2.4
CO/N=C(\C(=O)N[C@@H]1C(=O)N2C(C(=O)[O-])=C(C[N+]3(C)CCCC3)CS[C@H]12)c1csc(N)n1,0.088,.
C=CCn1c(CNC(=O)c2cccs2)nnc1SCC(=O)Nc1ccc(C(=O)O)cc1,-0.54,2.9
O=C(Nc1ccccc1)N(Cc1ccccc1)c1cccc2ccccc12,.,-2.2
Cc1ccc(-n2c(=O)/c(=C\c3ccc4c(c3)OCO4)s/c2=C(/C#N)C(=O)NCCN2CCOCC2)c(C)c1,.,1.7
COc1cc(Cl)c(C)cc1NC(=O)CC1CCCC1,.,-1.7

Additional entries follow.
Structure,KSHV LANA nucl,Ab BasE inh
O=C(NC(Oc1ccccc1)(C(F)(F)F)C(F)(F)F)Oc1ccccc1,.,2.4
Nc1nc(Nc2ccccc2)n(-c2ccccc2)c(=O)n1,-0.53,-1.3
CCOC(=O)c1sc(NC(=O)CSC2=NN3CCCC(=O)N=C3S2)c(C(=O)OCC)c1C,-0.19,-0.1
CCCS(=O)(=O)Nc1ccccc1C(=O)NCc1ccccc1,.,0.1
CN(C)NC(=S)NCc1ccc(F)cc1,.,-0.5
O=C(O)C1CCCCCN1 (stereo not given),-0.21,0.5
O=C(Nc1ccccc1)N1CCN(C(=O)C2CCCO2)CC1 (stereo not given),0.32,0.2
COc1ccc(NC(C)=O)cc1NC(=O)c1c(-n2cccc2)sc(C)c1C,.,0.7
O=C(Cc1noc2ccccc12)N1CCN(c2ccccc2)CC1,0.64,0.5
Cc1cccc(C)c1NC(=O)C1CCN(S(=O)(=O)c2ccccc2)CC1,-0.27,4.9
CCOC(=O)c1cc(-c2ccc(OC)c(S(=O)(=O)N3CCc4ccccc43)c2)on1,0.88,-7.8
COC(=O)C1=C(N)OC2=C(C(=O)CCC2)C1c1ccc(OCc2ccccc2F)cc1 (stereo not given),.,3.1
COC(=O)C1=C(C)NC(=O)/C1=C\c1cccc2ccccc12,.,-2.6
O=C(CN1C2=NCCCN2c2ccccc21)c1ccco1,.,2.5
COC(=O)c1ccc(Cl)c(-c2ccc(/C=N/n3cnnc3)o2)c1,.,2.3

Carrying on.
Structure,KSHV LANA nucl,Ab BasE inh
CCCNS(=O)(=O)c1ccc2[nH]c(=O)[nH]c2c1,-0.18,3.7
Cc1ccc2nc(NCCCN3CCOCC3)c3nncn3c2c1,0.54,-5.3
CC(C)(C)Nc1nc(OCC#N)nc(N2CCOCC2)n1,1.8,-2.3
CN/C(=C\[N+](=O)[O-])NCCSCc1csc(CN(C)C)n1,0.33&1.6,.
Nc1cc(=O)[nH]c(SCc2ccccc2CSc2nc(N)cc(=O)[nH]2)n1,1.9,-0.5
Cc1ccc(NC(C)C(=O)N/N=C/c2ccc(N(C)C)cc2)cc1 (stereo not given),-0.48,2.3
Cc1cc(C(=O)COc2ncnc3ccccc23)c(C)n1C,.,-8.1
O=C(Cn1c(=O)cnc2ccccc21)NC1CCCc2ccccc21 (stereo not given),.,-1.3
CC(C)Cn1c(=O)c2sccc2n2c(CCCC(=O)O)nnc12,0.67,0.8
CCN(CCC#N)C(=S)Nc1cc(C(F)(F)F)cc(C(F)(F)F)c1,.,-1.7
CCC1C(=O)NN=C1C (stereo not given),-0.19,0.5
CCc1cccc(C(C)C)c1NC(=O)Nc1ccccc1,.,1.7
CCOC(=O)N1CCN(c2cc3cc(OC)ccc3oc2=O)CC1,-0.47,2.7
COc1ccc2c(c1)c(CC(=O)OCC(=O)O)c(C)n2C(=O)c1ccc(Cl)cc1,0.24&0.07&0.61,-2.2&-1.3
Cc1cccc(N(CC(N)=O)C2SC(=O)N(c3ccccc3)C2=O)c1 (stereo not given),-1,1.1

Ordered by SMILES length (ascending): some entries from above
Structure,KSHV LANA nucl,Ab BasE inh
Cc1cc(C(=O)COc2ncnc3ccccc23)c(C)n1C,.,-8.1
Cc1ccc(NC(C)C(=O)N/N=C/c2ccc(N(C)C)cc2)cc1 (stereo not given),-0.48,2.3
COc1ccc2c(c1)c(CC(=O)OCC(=O)O)c(C)n2C(=O)c1ccc(Cl)cc1,0.24&0.07&0.61,-2.2&-1.3

Continued.
Structure,KSHV LANA nucl,Ab BasE inh
O=C(O)c1ccc(CN=C2NS(=O)(=O)c3ccccc32)cc1,.,-0.7
Cn1cnc2ccccc21,.,3.8
O=c1oc2ccccc2c(Nc2ccccc2)c1CN1CCCCC1,.,-0.3
CSc1nnc(C(C)(C)C)c(=O)n1/N=C/c1ccccc1,-0.94,7.0
Cc1cc(Br)ccc1OCCCN1C(=O)CCN1c1ccccc1,0.8,2.3
COc1ccc(CNC(=O)c2cccc(S(=O)(=O)N3CCN(C)CC3)c2)cc1,.,-1.0
O=C(Nc1ccc(NC(=O)c2cccs2)cc1)c1cccs1,-0.25,3.1
CCOC(=O)c1c(-c2ccccc2)cn2ccccc12,0.28,.
COc1ccc2nc(SCC(=O)NCC(F)(F)F)[nH]c2c1,.,0.1
O=C(NCc1ccccc1)NC1(C(=O)O)CCCCC1,0.12,-2.3
CCn1ccc(C(=O)Nc2cc(Cl)ccc2Cl)n1,0.37,3.7
CCOC(=O)N1CCN(C(=O)Cn2nc(CC)n3c(cc4sc(C)cc43)c2=O)CC1,-0.26,0.1
Cc1ccc(-c2nnc(SCC(=O)c3ccc(C)cc3C)o2)cc1,.,0.9
O=C(O)CCCSc1ccccc1,0.19,.
N#CCOC(=O)c1sc2ccccc2c1Cl,.,-0.7

The list continues:
Structure,KSHV LANA nucl,Ab BasE inh
C/C(=N\NC(=S)NC1CCCCC1)c1ccc(O)cc1,.,-2.2
Cc1cc2nc(Nc3ncc4c(n3)CC(c3ccco3)CC4=O)nc(C)c2cc1C (stereo not given),2.7,0.5
O=C1CC(N2CCOCC2)C(=O)N1C1CCCC1 (stereo not given),0.49,3.2
CCOC(=O)c1oc2ccccc2c1COC(=O)c1ccccn1,.,-4.1
COc1ccc(CSc2nc(C)cc(=O)[nH]2)cc1Br,0.73,0.9
CCCn1c(C)cc(C(=O)COn2nnc3ccc(C(=O)OC)cc32)c1C,.,-2.1
CN(C)C(=O)CN1CCNCC1,.,0.5
Cc1cc(C(=O)CSc2n[nH]c(COc3ccc(Cl)cc3)n2)c(C)n1-c1nccs1,.,1.4
CC(C)Oc1cccc(NC(=O)Nc2ccccc2)c1,-0.52,3.0
COc1cccc(NC(=O)N2CCN(c3nnnn3-c3ccccc3)CC2)c1,-0.48,1.4
Cc1ccc(NCC2OCc3ccccc3CO2)cc1,-0.39,2.2
O=C1CC(c2ccccc2Cl)Cc2c1cnn2-c1nc2ccccc2s1 (stereo not given),.,2.9
CCN(CC)C(=O)CN1C=NS(=O)(=O)c2ccccc21,-0.15,0.1
Clc1ccc(-c2noc(CCCSc3nnnn3-c3ccccc3)n2)cc1,.,1.5
COC(=O)c1ccc2nc(-c3cccc(N)c3)cn2c1,-1.4,.

Remaining list, next part:
Structure,KSHV LANA nucl,Ab BasE inh
CN(C)/C=C1/C(=O)N(c2ccccc2)N=C1C(C)(C)C,0.3,0.6
CCOC(=O)C1CCCN(CC(=O)Nc2ccc(C(=O)Nc3ccccc3OC)cc2)C1 (stereo not given),.,1.2
Cn1cc(NC(=O)N(CCO)Cc2ccccc2)c2ccccc21,0.22,-1.3
CC(C(=O)O)N1c2cccc3cccc(c23)S1(=O)=O (stereo not given),-0.89,0.1

Shown with values under each structure: part of the list above
Screens in order: KSHV LANA nucl | Ab BasE inh
Cn1cc(NC(=O)N(CCO)Cc2ccccc2)c2ccccc21
    0.22 | -1.3
CC(C(=O)O)N1c2cccc3cccc(c23)S1(=O)=O (stereo not given)
    -0.89 | 0.1
